Assay outcomes deposited in PubChem by National Center for Advancing Translational Sciences (NCATS).
hNpr1 antagonist – human Npr1 receptor antagonism; 1.6% of 76,000 active; P16066; Potency, µM (series often up to 46.3 µM), for inactives: at the top dose activity change, negative = inhibition, actives largely listed as inhibitors; HEK293 hNpr1 GloSensor cGMP, ANP-stimulated luminescence; active = well fitted inhibition curve with a large enough effect; inconclusive = small, poorly fitted or top-dose-only effect; inactive = no such curve, though single readings can be large or run the other way;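 further: nearly all actives have a fitted effect of over 60% in size; nearly all hits also lower the signal before the agonist is added; a reference antagonist and vehicle were the controls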
Target sequence (P16066 whole entry, looked up): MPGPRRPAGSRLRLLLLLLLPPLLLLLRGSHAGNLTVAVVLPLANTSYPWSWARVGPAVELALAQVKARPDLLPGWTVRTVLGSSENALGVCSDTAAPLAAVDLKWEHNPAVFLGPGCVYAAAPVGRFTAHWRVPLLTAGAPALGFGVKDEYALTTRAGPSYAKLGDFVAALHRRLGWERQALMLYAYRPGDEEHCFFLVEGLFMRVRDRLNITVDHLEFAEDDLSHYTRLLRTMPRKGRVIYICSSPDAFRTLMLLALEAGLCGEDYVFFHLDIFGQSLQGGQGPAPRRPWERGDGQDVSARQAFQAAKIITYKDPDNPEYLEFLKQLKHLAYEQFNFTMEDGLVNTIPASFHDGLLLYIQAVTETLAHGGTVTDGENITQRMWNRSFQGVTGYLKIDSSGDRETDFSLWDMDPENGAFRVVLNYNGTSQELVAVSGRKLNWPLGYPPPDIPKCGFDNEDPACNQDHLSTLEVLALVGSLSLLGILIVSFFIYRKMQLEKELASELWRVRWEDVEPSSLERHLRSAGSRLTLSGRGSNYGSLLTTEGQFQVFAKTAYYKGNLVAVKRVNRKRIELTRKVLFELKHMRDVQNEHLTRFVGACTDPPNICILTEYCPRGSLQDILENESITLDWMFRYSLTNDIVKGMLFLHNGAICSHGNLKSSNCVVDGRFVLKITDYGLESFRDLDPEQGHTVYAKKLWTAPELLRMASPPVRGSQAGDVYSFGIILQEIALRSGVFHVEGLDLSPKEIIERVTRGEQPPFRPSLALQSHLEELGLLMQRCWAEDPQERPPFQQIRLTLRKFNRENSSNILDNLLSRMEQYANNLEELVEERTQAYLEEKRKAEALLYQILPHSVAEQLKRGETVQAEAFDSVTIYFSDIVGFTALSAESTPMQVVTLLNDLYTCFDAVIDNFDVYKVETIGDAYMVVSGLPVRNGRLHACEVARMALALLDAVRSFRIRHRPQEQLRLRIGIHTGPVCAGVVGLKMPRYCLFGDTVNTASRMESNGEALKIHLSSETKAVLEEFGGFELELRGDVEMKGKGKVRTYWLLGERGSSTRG
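HEK293 cells stably expressing human Npr1 and cGMP GloSensor pGS-40F, loaded 2 h with 2% GloSensor reagent, given compound 30 min at room temperature. Luminescence read before and 20 min after 0.1 nM hNppA.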
An asterisk follows results filed as active; ? = inconclusive; & = joins results of further samples; [ ] = another dose, or the depositor's remark. On the % scale 0 is the no-effect control and ±100 the full control effect; potency means the concentration at half of the fitted maximal effect. These rows are one share of the data; count on the stated rates, not on these rows.

| SMILES | hNpr1 antagonist |
| --- | --- |
| FC(F)(F)c1cc(Nc2cnc3ccc(N4CCOCC4)nn23)ccc1Cl | ? |
| O=C(NCC1Cn2cccc2CN1Cc1ccccc1)c1ccoc1 (configuration not stated) | 3% |
| CCc1noc(-c2cccn3c(CNC(=O)c4cc(C)ccc4C)nnc23)n1 | 6% |
| CN(C)CCNC(=O)c1cccnc1OC1CCNCC1 | 1% |
| N#Cc1ccc(CN2CC3CCC(C2)N3c2ccc(C(F)(F)F)cc2)cc1 | ? |
| CC(C)Cc1cc(C(=O)N2CCc3nc(-c4ccccc4)[nH]c3C2)nc(=O)[nH]1 | 2% |
| COc1ccc(CC(=O)NC2CCN(c3cc(-c4ccc(F)cc4)[nH]n3)CC2)cc1OC | 11µM* |
| Cc1ccc(NC(=O)CN2C(=O)C(c3ccccc3)=NC23CCCC3)c(C)c1 | 1% |
| CC(C)NC(=O)C1CN(c2cccc(Cl)c2)C(=O)N1 (configuration not stated) | 0%&38%[70.6 µM] |
| O=C1c2c(nc(COc3cccc(F)c3)n2Cc2ccccc2)NCCN1CC1CC1 | -3%[70.6 µM] |
| O=C(c1nc(-c2ccc(Cl)cc2)c2ccccn12)N1CCOCC1 | 5%[70.6 µM] |
| CCn1ccc2sc(C)c(C(=O)NCCC(C)C)c2c1=O | -3% |
| CO[C@H]1[C@H](NC(=O)Cn2nc(C)c(C)c2C)c2ccccc2C12CCNCC2 | 4% |
| CNC(=O)CCN(C)c1nccc(-c2ccc(C)nc2C)n1 | -6% |
| CCCNC(=O)C(NC(=O)c1ccc(OC)cc1)C1CCN(C(=O)c2ccc3c(c2)OCO3)CC1 (configuration not stated) | 1% |
| O=C(NCCc1noc(-c2ccccc2)n1)C1COc2ccccc2C1 (configuration not stated) | -13% |
| CNCCN1C(=O)CC[C@H]2CN(c3nc4cc(C)ccc4o3)CC[C@H]21 | 3% |
| COC(=O)c1ccccc1NC(=O)Cn1ccn2nc(-c3ccccc3)c(CO)c2c1=O | -9% |
| COCCN1C(=O)CS(=O)(=O)C12CCN(C(=O)c1ccccc1F)CC2 | 5% |
| COCCCNC(=O)c1ccc(Cn2ccn3nc4c(c3c2=O)CCCC4)cc1 | 3% |
| Fc1cccc(-n2nc(C3CCOCC3)nc2CNC2CC2)c1 | -1% |
| Cc1nn(-c2ccc(C(C)(C)C)cc2)c(C)c1[C@@H]1C=C[C@@H](NC(=O)c2ccco2)C1 | ? |
| CNC(=O)[C@@H]1C[C@@H](O)CN1C1CCN(C(=O)c2cccc(OC)c2)CC1 | -4% |
| CCn1cc(CN2CCSCC2)ccc1=O | -2% |
| Cc1ccc(S(=O)(=O)N2CCC(OC3CCN(Cc4ccccc4)CC3)CC2)cc1C | -22% |
| CCN(CC)c1cc(CCC(=O)NCCCN2CCN(C)CC2)ccn1 | 2% |
| O=C(Cn1ccn2nc(-c3ccc(F)cc3)c(CO)c2c1=O)Nc1ccc(Cl)cc1F | 2% |
| O=C1N(C2CCCCC2)C[C@H]2CN(Cc3ccc(C(F)(F)F)cc3)CCN12 | 13µM* |
| COc1ccc(Cl)cc1NC(=O)Cn1c(-c2ccc(F)cc2)nc(C)c(CCO)c1=O | -4% |
| COc1ccc(C(=O)NCC2CCN(c3cnn(C)c(=O)c3)C2)c(OC)n1 (configuration not stated) | 1% |
| Cc1ccc(CC(=O)N2CC(c3nnc(-c4ccc(C)cc4)o3)C3(CCOCC3)C2)cc1 (configuration not stated) | 8% |
| COc1ccc(NC(=O)O[C@@H]2CC[C@]3(C)C(CC[C@@H](O)[C@H]3CC(=O)NCc3ccc4c(c3)OCO4)[C@]2(C)CO)cc1 (some centres not stated) | 5% |
| O=C(Nc1ccccc1)O[C@@H]1CO[C@H]2[C@@H]1OC[C@@H]2n1nnnc1SCc1ccco1 | -26%[70.6 µM] |
| O=C(c1cccnn1)N1CC(F)(F)C[C@H]1c1nc(C2CC2)no1 | 1% |
| Cc1ccncc1C(=O)N1C[C@@H](COc2ccccc2)[C@H](C(N)=O)C1 | 1% |
| CC(C(=O)NCc1nnc2ccc(-c3ccccc3)nn12)c1ccccc1 (configuration not stated) | 7% |
| O=C(O)Cn1nc(-c2ccccc2)nc1C1CC(=O)N(Cc2cccnc2)C1 (configuration not stated) | 8% |
| CCc1ccc(NC(=O)N2CCC(Oc3ncccc3C(=O)N3CCOCC3)C2)cc1 (configuration not stated) | 1% |
| O=C1Nc2ccccc2O[C@H]2C[C@@H]1N(C(=O)Cc1ccccc1)C2 | 4%[70.6 µM] |
| CCc1ccccc1NC(=O)Cn1c(N2CCCCC2)nc(C)c(C)c1=O | -10% |
| O=C1Nc2ccc(-c3ccccc3)cc2C(=O)N2CCN(C(=O)c3cccnc3)C[C@H]12 | 0%[70.6 µM] |
| Fc1cccc(NC2CCCN(Cc3cccn3-c3nccs3)C2)c1 (configuration not stated) | -5% |
| O=C(C[C@@H]1O[C@H](CNC(=O)c2ccco2)[C@@H](O)[C@H]1O)NCc1ccc(F)cc1 | 0%[70.6 µM] |
| CCN(C(=O)Cn1cccc1-c1nc(-c2ccc(OC)c(F)c2)no1)c1ccccc1 | -3% |
| CCOc1ccccc1C(=O)NC1CCN(c2cc(C)cc(C)c2)C1=O (configuration not stated) | -22% |
| CNC(=O)N1CCC(C2CCN(C(=O)c3cn[nH]c3)C2)CC1 (configuration not stated) | 14% |
| CC(C)c1nnc(C2CN(C(=O)Cc3ccc(Br)cc3)CC23CCOCC3)o1 (configuration not stated) | 3% |
| COc1ccccc1Nc1ncc2c(n1)CN(C(=O)c1cccc(O)c1)CCN2 | -26%[70.6 µM] |
| CN1CCC(N2CCN(C(=O)c3ccncc3)CC2)C1=O (configuration not stated) | -1% |
| CCn1c(CN(C)C)nnc1C1CCN(C(=O)CN(C)c2ccccc2)CC1 | 2% |

In the list so far, four have a furan ring, fused or not:
| SMILES | hNpr1 antagonist |
| --- | --- |
| O=C(NCC1Cn2cccc2CN1Cc1ccccc1)c1ccoc1 (configuration not stated) | 3% |
| Cc1nn(-c2ccc(C(C)(C)C)cc2)c(C)c1[C@@H]1C=C[C@@H](NC(=O)c2ccco2)C1 | ? |
| O=C(Nc1ccccc1)O[C@@H]1CO[C@H]2[C@@H]1OC[C@@H]2n1nnnc1SCc1ccco1 | -26%[70.6 µM] |
| O=C(C[C@@H]1O[C@H](CNC(=O)c2ccco2)[C@@H](O)[C@H]1O)NCc1ccc(F)cc1 | 0%[70.6 µM] |

(more compounds)
| SMILES | hNpr1 antagonist |
| --- | --- |
| N#Cc1cccc(CN2CCc3nc(N4CCOCC4)[nH]c(=O)c3CC2)c1 | -1% |
| Fc1ccc(Cc2nc3nccc(-c4cccnc4)n3n2)cc1 | 3% |
| Cc1ccc(-c2nc(C(=O)NCc3ccc4c(c3)OCO4)no2)cc1 | 5% |
| CC(=O)N1CCC2(C1)C(=NC1CCCC1)NC(=O)N2c1cccnc1 (configuration not stated) | 0%[70.6 µM] |
| O=C1NCCOCCN(C(=O)NCCc2ccccc2)[C@@H]2CCCC[C@H]12 | -3% |
| O=C(NCc1nnc2c(-c3nc(C4CC4)no3)cccn12)c1cccc(F)c1 | 4% |
| O=C(C1CC1)N1CCC2(CC1)CN(c1ccccc1)C2=O | 1% |
| O=C1CCN(S(=O)(=O)c2ccccc2)CCCN(C(=O)c2n[nH]c3ccccc23)CCN1 | -16% |
| COCCN(CC1CC1)C(=O)c1ccc2nc(-c3ccc(F)cc3)cn2c1 | -10% |
| CSc1ccc(-c2noc(-c3nnn4c3COC(c3ccc(Cl)cc3)C4)n2)cc1 (configuration not stated) | -3% |
| O=C(CCc1cccs1)N1CCOC(CCCc2ccccc2)C1 (configuration not stated) | 4% |
| CCn1ccc(C(=O)N2CCC(CCOC)(NS(C)(=O)=O)CC2)n1 | 0% |
| CN1C[C@@H](NC(=O)COc2ccccc2)C[C@H]1c1nc(-c2ccncc2)no1 | -1%[70.6 µM] |
| CC1=C[C@@H](CNCCN2CCNC2=O)[C@H](C(C)C)C[C@H]1Cc1nnc(-c2cccnc2)o1 | 8% |
| O[C@@H]1C[C@@H](c2nnc3n2CCN(CC2CCCCC2)C3)N(Cc2ccccc2)C1 | -1% |
| CN1CC2(CCN(C(=O)c3cccn3C)CC2)CC1C(=O)N1CCOCC1 (configuration not stated) | -1% |
| COCc1cc(C[C@@H]2CC[C@H](O)[C@@H](CNC(=O)C(C)C)O2)no1 | 1%[70.6 µM] |
| COc1cccc(N2C(=O)NC(=NC3CCCCC3)C23CCN(C(=O)c2cccnc2)C3)c1 (configuration not stated) | 20% |
| CCn1nc(C)cc1C(=O)NCc1cccnc1N1CCOCC1 | 10% |
| CC(C)Cc1cc(C(=O)N2CCc3[nH]nc(-c4ccccc4F)c3C2)n(C)n1 | 0% |
| O=C1CCN(C(=O)CCCc2ccccc2)CCCC(c2nc(-c3cccnc3)no2)CCN1 (configuration not stated) | 0% |
| CCc1ccc(C(=O)N2CCC(CC(=O)NCc3ccccc3)C2)cc1 (configuration not stated) | 2% |
| COc1ccc(C2NC(=O)N(CC3CC3)C3=C2C(=O)OC3)cc1 (configuration not stated) | 5% |
| CCCNC(=O)NC[C@H]1O[C@@H]2C[C@@H](CC(=O)NC(C)C)O[C@@H]2[C@@H]1O | 4%[70.6 µM] |
| CCc1ccccc1NC(=O)c1cc2c(s1)CN(C(C)C)C2 | -11% |
| O=C1CN(C(=O)Cc2c[nH]c3ncc(-c4ccccc4)cc23)CCN1 | -9%[70.6 µM] |
| O=C(N1CCC(c2n[nH]c(=O)n2Cc2ccc(F)cc2)CC1)C1(c2ccccc2)CC1 | 6% |
| COc1ccc(Nc2nccc3c(=O)cc(-c4cn[nH]c4)oc23)cc1OC | -12%[70.6 µM] |
| CS(=O)(=O)Nc1ccc(C2(C(=O)NCc3ccc(Cl)cc3)CCCCC2)cc1 | -7% |
| COCC(=O)N1C[C@H](NC(=O)C(=O)c2cccn2C)[C@@H](C2CC2)C1 | -1% |
| CCCn1c(C)cnc1CC1CCCN(C(=O)CCOC)C1 (configuration not stated) | -5% |
| Cn1c(CNC(=O)C2Cn3cccc3C(=O)N2Cc2cccnc2)nc2ccccc21 (configuration not stated) | -3% |
| CN1CC(=O)N(C2CCC2)Cc2c1ncnc2N1CCCC1 | -3%[70.6 µM] |
| COC(=O)c1cccc(NC(=S)N[C@H]2CO[C@H]3[C@@H]2OC[C@@H]3n2nnnc2Oc2ccc3c(c2)OCO3)c1 | -29% |
| CN(CC1CCOC1)C(=O)NC1CCCCC1 (configuration not stated) | 8% |
| COc1ccccc1N1CCN([C@@H]2[C@H](O)[C@H](CO)O[C@@H]2CNC(C)=O)CC1 | 12% |
| O=C(N[C@H]1CCN2C(=O)c3cc(-c4ccc(F)cc4F)ccc3NC(=O)[C@H]12)c1cnccn1 | 3% |
| O=C(NCC1CCCO1)c1nnn2cc(-c3ccccc3)[nH]c(=O)c12 (configuration not stated) | 0% |
| CCN(C1CCOCC1)C1CN(C(=O)C2CCC2)C1 | -1% |
| CN(C)C[C@@H]1CN(Cc2ccccn2)C[C@H]1NS(=O)(=O)c1cccc(C#N)c1 | 3% |
| CC(=O)Nc1ccccc1-c1nccc2c(=O)cc(N(C)C3CCOCC3)oc12 | 4%[70.6 µM] |
| CC(C)NC(=O)Nc1ccc([C@H]2OCC(=O)N[C@@H]2CO)cc1 | 3%[70.6 µM] |
| O=C(NCc1cc2n(n1)CCNC2)c1cc2c(s1)CCCCC2 | 3% |
| COc1ccc(CN2C(=O)[C@@H]3C[C@@H](CN3Cc3ccccc3Cl)Oc3ccccc32)cc1 | -12% |
| Cc1nnc(-c2cc(-c3cccnc3)ccn2)n1CCN1CCOCC1 | 3%[70.6 µM] |
| Cc1nc(C)c(C(=O)N2CCCCCNC(=O)[C@@H]3CCC[C@@H]32)s1 | 0% |
| CC(=O)c1ccc(NC(=O)N[C@H]2CO[C@H]3[C@@H]2OC[C@@H]3Nc2nccc(-c3ccco3)n2)cc1 | -6% |
| COc1ccc(C(=O)N2CCCC3(CNc4ccccc4[S+](=O)([O-])N3)C2)cc1 (configuration not stated) | 0% |
| O=C1NCCCCCCN(C(=O)c2ccco2)[C@H]2C[C@H](c3nc(-c4cnccn4)no3)C[C@@H]12 | 2% |
| O=C(NCC1COCCO1)c1ccc(CN2CCC(N3CCCC3)CC2)[nH]c1=O (configuration not stated) | 2% |

(continued)
| SMILES | hNpr1 antagonist |
| --- | --- |
| NC(=O)NCC(=O)NC1CCCN(c2nc3ccccc3s2)C1 (configuration not stated) | 2% |
| Cc1ccc2c(C(=O)O)cc(NC(=O)C3CCC3)cc2n1 | 0% |
| N#Cc1cccc(CN2CCC3(CC2)COCCN3C(=O)OCc2ccccc2)c1 | -9%[70.6 µM] |
| Cc1nc2c(c(-c3ccc(Cl)cc3)n1)CCN(C(=O)Nc1ccccc1)CC2 | -2% |
| COc1ccccc1-c1onc(C)c1C(=O)NCCC(c1ccccc1)c1ccccc1 | -10% |
| COc1ccccc1OCCNC(=O)CCC[C@H]1NC[C@@H]2C[C@H]1CN(Cc1ccccc1)C2 | -7% |
| Cc1ccc(C(=O)N2C[C@@H](CN3CCCN(C)CC3)[C@@H](CO)C2)nc1 | 1% |
| O=C1Nc2ccccc2CC12CCN(CC1CC1)CC2 | 2%[70.6 µM] |
| COc1ccc(C2(C(=O)NC3CCCc4c3[nH]c3c(Cl)cccc43)CCOCC2)cc1 (configuration not stated) | ? |
| COc1cccc(NC(=O)N2CCc3nc4cc(-c5ccccc5Cl)[nH]n4c(=O)c3C2)c1 | 2% |
| CCOCc1nc(C2CCCN(C(=O)c3ccc(C)s3)C2)no1 (configuration not stated) | 12% |
| O=C(NCc1ccccc1Cl)[C@@H]1CNC[C@H]1COc1cccnc1 | 1% |
| O=C(NC1CCCCC1)N1CCC(c2noc(-c3ccccc3)n2)C1 (configuration not stated) | 18µM* |
| C[S+](=O)([O-])c1cccc(NC(=O)c2cnc3n2CCN(CCc2ccccc2)CC3)c1 | -8% |
| COc1cccc(CN2CCC(N3C(=O)C(OCC4CC4)C34CCCCC4)CC2)c1OC (configuration not stated) | -9% |
